Calb FLC: affects C. albicans growth with fluconazole; C. albicans CaCi-2 (fluconazole-resistant clinical isolate) + fluconazole, Alamar Blue growth, 48 h; growth inhibition, % (concentration not given with the values); actives 0.57% (n = 300,000); AID 1979;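 active = most replicates above 75%; inconclusive = exactly half above 75%; inactive = most below 75%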;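 note: all wells also contain fluconazole at 8 µg/ml as a sub-toxic cotreatment; 0% = median of DMSO wells and 100% = median of geldanamycin control wells; wells of about 8 µL received 7.5 nL stock; the first replicate is given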
RanGTP-Impb inh: inhibitors of RanGTP-importin-beta interaction, primary screen, biochemical, FRET, CFP-Ran, YFP-importin-beta, homogeneous. cell-free CFP-Ran/YFP-importin-beta FRET ratio. inhibition, % (test concentration not listed). actives 1.1% (n = 300,000). AID 2216;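 active = most replicates above 15%; inconclusive = exactly half above 15%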;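 note: 0% = DMSO wells and 100% = Ran loaded with GDP instead of GTP; wells of about 40 µL received 100 nL stock; the first replicate is given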
Vif TR-FRET: HIV-1 Vif–A3G interaction blockers – biochemical, TR-FRET, GST-Vif 1-94, biotin-A3G peptide, dose response retest, primary screen (AID 1117319) | TR-FRET GST-Vif / biotin-A3G peptide binding; higher % means a stronger effect; test concentration not given here; strong numbers were not always called active | inhibition, %; hits with a dose series show IC50 in µM | actives 0.57% (n = 260,000);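 active = above the screen mean plus three standard deviations and confirmed in dose response; inconclusive = results disagree or hit not tested in dose response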;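 note: Vif residues 1-94 fused to GST binding biotinylated APOBEC3G peptide 110-148; 0% = full assay without inhibitor and 100% = GST in place of GST-Vif; retest series ran down from 100 µM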
AF4-AF9 inh: MLL-AF4/AF9 protein interaction inhibition | P42568 | AlphaScreen, biotin-AF4 peptide binding to FLAG-AF9 | inhibition, % at 10 µM | actives 0.47% (n = 350,000);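 active = every replicate reaching a set inhibition limit, whatever the replicate mean, cut at about 25% in these data; inconclusive = mean inhibition reaches that limit but some replicates miss it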;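 note: 0% = plate neutral control median and 100% = total signal loss; the record names both 10 and 1 µM as test concentration; the first replicate is given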
Bfl-1 A1 inh: inhibitors of the anti-apoptotic protein A1, read as caspase activation. MEF A1-2A-BIM cells, Caspase-Glo 3/7 luminescence, 3 h; percent of clofoctol response, vehicle zero. caspase activation, % (concentration not given with the values). actives 0.066% (n = 330,000). AID 2462;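 active = over half of replicate activation scores above 10%, or exactly half above 10 with the replicate mean above 10; inconclusive = replicate mean below 10 yet half the replicates above 10; inactive = over half of replicates below 10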;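 note: wells of about 30 µL received 50 nL stock; many hits fall short of the cut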
Beta apoptosis: blocks beta cell apoptosis; INS-1E cytokine-induced death, ATP luminescence, 48 h; percent of positive-control rescue, neutral wells zero; protection from apoptosis, % (concentration not given with the values); actives 0.8% (n = 300,000); AID 435005;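 active = all replicates at 75% or more, or half of them and the mean; inconclusive = half reach 75% but not the mean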;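 note: 0% = cytokine-treated negative control wells and 100% = positive control rescue; higher means more ATP so stronger rescue from cytokine killing; wells of about 40 µL received 100 nL stock; the first replicate is given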
LANA-H2B inh: blocks KSHV LANA binding to histone H2A/H2B | cell-free LANA-H2A/H2B peptide, fluorescence polarization | inhibition, % (test concentration not listed) | actives 0.6% (n = 320,000) | AID 2629; in the data active = inhibition mostly above about 10%, no sharp cut-off; inactive = mostly below about 6.7%;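 note: stock transfer was 7.5 nL into about 10 µL; 0% = median of vehicle wells and 100% = median of positive control wells; one replicate is shown; the record names a cut of 25% in any replicate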
Target sequence (Q9QR71 whole entry, looked up): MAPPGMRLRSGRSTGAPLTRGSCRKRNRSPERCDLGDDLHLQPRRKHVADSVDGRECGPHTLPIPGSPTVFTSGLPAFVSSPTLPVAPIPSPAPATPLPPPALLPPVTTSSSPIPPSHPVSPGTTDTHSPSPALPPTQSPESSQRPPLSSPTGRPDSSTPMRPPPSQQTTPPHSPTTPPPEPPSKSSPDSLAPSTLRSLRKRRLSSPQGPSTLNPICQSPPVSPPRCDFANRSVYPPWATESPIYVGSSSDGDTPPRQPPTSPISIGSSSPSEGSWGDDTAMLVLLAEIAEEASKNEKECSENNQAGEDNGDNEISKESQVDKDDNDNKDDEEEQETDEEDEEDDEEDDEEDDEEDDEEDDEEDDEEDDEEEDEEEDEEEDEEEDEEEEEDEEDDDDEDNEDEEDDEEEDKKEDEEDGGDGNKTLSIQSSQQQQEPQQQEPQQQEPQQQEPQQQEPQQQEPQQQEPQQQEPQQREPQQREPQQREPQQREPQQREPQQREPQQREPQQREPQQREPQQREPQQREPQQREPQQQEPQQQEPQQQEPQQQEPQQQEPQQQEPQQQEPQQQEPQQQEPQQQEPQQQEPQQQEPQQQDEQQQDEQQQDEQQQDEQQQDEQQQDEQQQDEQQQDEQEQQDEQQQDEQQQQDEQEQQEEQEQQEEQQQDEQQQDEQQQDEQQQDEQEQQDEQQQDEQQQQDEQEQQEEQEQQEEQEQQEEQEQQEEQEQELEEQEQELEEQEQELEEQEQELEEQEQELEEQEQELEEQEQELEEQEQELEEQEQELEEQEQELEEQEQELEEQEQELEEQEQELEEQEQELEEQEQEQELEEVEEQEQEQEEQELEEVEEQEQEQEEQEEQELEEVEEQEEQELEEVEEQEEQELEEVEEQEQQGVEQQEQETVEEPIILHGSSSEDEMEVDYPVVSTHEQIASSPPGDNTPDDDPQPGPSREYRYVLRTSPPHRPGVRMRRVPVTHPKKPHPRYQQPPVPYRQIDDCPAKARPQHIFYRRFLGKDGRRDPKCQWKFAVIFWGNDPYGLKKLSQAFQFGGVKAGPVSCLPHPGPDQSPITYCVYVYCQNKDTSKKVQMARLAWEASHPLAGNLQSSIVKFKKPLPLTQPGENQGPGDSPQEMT
T cruzi inh: T. cruzi replication inhibition; inhibition, % (test concentration not listed); T. cruzi beta-gal in NIH3T3, luminescence, 90 h; actives 1.4% (n = 300,000);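 active = mean inhibition across valid replicates above about 55%, limit read from the data; inconclusive = mean below that limit but half or more replicates reach it; inactive = mean below it, under half of replicates reach it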;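 note: signal also drops with host cell toxicity which is not excluded here; 0% = plate median of DMSO wells and 100% = zero luminescence signal; higher percent means less beta-gal luminescence so fewer parasites; stock transfer was 50 nL into about 50 µL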
An asterisk follows results filed as active; & = joins results of further samples. An unsorted share of the library, and some 4.3% of all compounds hit somewhere here.

What do the screens show for `CC(C(=O)O)N1c2cccc3cccc(c23)S1(=O)=O` (stereo not drawn)?
Calb FLC: 4; RanGTP-Impb inh: 5.3; AF4-AF9 inh: -1.9; Bfl-1 A1 inh: -0.8; Beta apoptosis: -8; LANA-H2B inh: 0.7; T cruzi inh: 1

What do the screens show for `COCCN1C(=O)C(CC(=O)Nc2ccc(C(C)=O)cc2)SC1=Nc1ccccc1` (stereo not drawn)?
Calb FLC: -19; RanGTP-Impb inh: 2.7; Vif TR-FRET: 0%&-2%; AF4-AF9 inh: 6.0; Bfl-1 A1 inh: inconclusive; Beta apoptosis: -1; LANA-H2B inh: 0.4; T cruzi inh: -2

Results for CCCCn1c(N)c(N(CCOC)C(=O)CSCc2c(C)noc2C)c(=O)[nH]c1=O ?
Calb FLC: 6; RanGTP-Impb inh: 0.4; AF4-AF9 inh: -2.7; Bfl-1 A1 inh: 0.7; Beta apoptosis: -7; LANA-H2B inh: -0.1; T cruzi inh: -12

What do the screens show for `Cc1cccnc1NC(=O)CCNS(=O)(=O)c1ccc2c(c1)c(=O)n(C)c(=O)n2C`?
Calb FLC: 25; RanGTP-Impb inh: -1.0; Vif TR-FRET: inconclusive; AF4-AF9 inh: -1.8; Bfl-1 A1 inh: 0.0; Beta apoptosis: -5; LANA-H2B inh: -0.6; T cruzi inh: -2

How did CC(NC(=O)Nc1ccccc1)C(c1cccs1)N1CCN(c2ccccc2)CC1 (stereo not drawn) do in these assays?
Vif TR-FRET: inconclusive; AF4-AF9 inh: 23; Bfl-1 A1 inh: 0.6; Beta apoptosis: 6; LANA-H2B inh: 2.0

Results for Cc1c(Nc2nc3ccccc3n3cnnc23)cccc1[N+](=O)[O-] ?
Calb FLC: -1; RanGTP-Impb inh: -3.3; Vif TR-FRET: -7%; AF4-AF9 inh: -0.3; Bfl-1 A1 inh: 2.5; Beta apoptosis: -3; LANA-H2B inh: 0.0; T cruzi inh: -7

How did COc1cccc(NC(=O)CN(C)S(=O)(=O)c2ccc3c(c2)CCC(=O)N3)c1 do in these assays?
Calb FLC: 3; RanGTP-Impb inh: 2.1; Beta apoptosis: -1; LANA-H2B inh: 2.1; T cruzi inh: -13

How did Cc1ccccc1Nc1ncnc2c1cnn2-c1ccccc1 do in these assays?
Calb FLC: 1; RanGTP-Impb inh: -1.1; Vif TR-FRET: -2%; AF4-AF9 inh: 0.2; Bfl-1 A1 inh: 0.2; Beta apoptosis: -8; LANA-H2B inh: 2.1; T cruzi inh: -8

How did COc1ccc2c(c1)C1CC(C)(NC(=O)C1S(=O)(=O)c1ccc(F)cc1)O2 (stereo not drawn) do in these assays?
Calb FLC: -4; RanGTP-Impb inh: 6.1; AF4-AF9 inh: 5.8; Bfl-1 A1 inh: 1.6; Beta apoptosis: 0; LANA-H2B inh: 5.4; T cruzi inh: 2

Results for Cc1cc(=O)oc2cc(OCC(=O)Nc3nnc(C4CC4)s3)ccc12 ?
Calb FLC: 25; RanGTP-Impb inh: 0.3; Vif TR-FRET: 5%; AF4-AF9 inh: 8.1; Bfl-1 A1 inh: 0.3; Beta apoptosis: -4; LANA-H2B inh: -4.5; T cruzi inh: 0

Results for CCC(=O)c1cc(-c2nc3ccccc3n2C)n(C)c1 ?
RanGTP-Impb inh: 4.9; Vif TR-FRET: -6%; Bfl-1 A1 inh: 2.1; Beta apoptosis: -3; LANA-H2B inh: 4.0; T cruzi inh: -11

What do the screens show for `O=C(CSc1ccccn1)N1CCN(c2cccc(Cl)c2)CC1`?
Calb FLC: 10; RanGTP-Impb inh: -1.3; Vif TR-FRET: -4%; Bfl-1 A1 inh: -0.7; LANA-H2B inh: -6.0; T cruzi inh: -13

What do the screens show for `O=C(NCCCN1CCOCC1)c1ccc2ccccc2c1`?
Calb FLC: 8; RanGTP-Impb inh: -2.8; Vif TR-FRET: 1%; AF4-AF9 inh: 0.7; Bfl-1 A1 inh: -0.1; Beta apoptosis: -2; LANA-H2B inh: 2.9; T cruzi inh: -1

Results for CC(=NCCc1ccccc1)C1=C(O)COC1=O ?
Calb FLC: -5; RanGTP-Impb inh: 1.3; Vif TR-FRET: 3%; Bfl-1 A1 inh: -0.2; Beta apoptosis: 1; LANA-H2B inh: 3.9; T cruzi inh: -1

What do the screens show for `CCOc1ccc(NC(=O)CN(C)CC(=O)Nc2ccc(Br)cc2F)cc1OCC`?
Calb FLC: -8; RanGTP-Impb inh: -1.4; Vif TR-FRET: 2%; AF4-AF9 inh: 1.5; Bfl-1 A1 inh: -0.3; Beta apoptosis: -11; LANA-H2B inh: 2.8; T cruzi inh: 3

Results for COc1ccc2nc(-c3ccccc3)cc(C(=O)N3CCC3)c2c1 ?
Vif TR-FRET: 10%; AF4-AF9 inh: 4.9; Bfl-1 A1 inh: 0.2; Beta apoptosis: 0; LANA-H2B inh: -4.5

How did CC1CN(C(=O)c2ccc(-c3cccc(C(F)(F)F)c3)o2)CC(C)O1 (stereo not drawn) do in these assays?
Calb FLC: -6; RanGTP-Impb inh: -7.5; Vif TR-FRET: -2%; AF4-AF9 inh: -9.6; Bfl-1 A1 inh: 0.0; Beta apoptosis: -1; LANA-H2B inh: -3.0; T cruzi inh: 14

Results for C=CCNC(=O)N1C2=NC(C(=O)OC)=C(C(=O)OC)[C@@H]3N(Cc4ccccc4)c4ccccc4[C@]23C[C@H]1C(=O)OC ?
Calb FLC: 2; RanGTP-Impb inh: 0.8; AF4-AF9 inh: 4.5; Bfl-1 A1 inh: -0.4; Beta apoptosis: 2; LANA-H2B inh: -0.2; T cruzi inh: 5

Results for CCN(CC)P(=O)(Nc1cccc(C(F)(F)F)c1)c1ccc(N(C)C)cc1NC(=O)c1ccco1 (stereo not drawn) ?
Calb FLC: 25; RanGTP-Impb inh: -10.0; Vif TR-FRET: 12%; AF4-AF9 inh: 4.4; Bfl-1 A1 inh: 0.1; Beta apoptosis: 10; LANA-H2B inh: 7.1; T cruzi inh: 55*

What do the screens show for `O=C(CCc1ccc(S(=O)(=O)NCc2ccccc2)cc1)NCC1CCCO1` (stereo not drawn)?
Calb FLC: -2; RanGTP-Impb inh: 4.3; Vif TR-FRET: 4%; Bfl-1 A1 inh: -0.1; Beta apoptosis: -5; LANA-H2B inh: 1.5; T cruzi inh: -17

How did Clc1ccc2nc(CN3CCCCCC3)cn2c1 do in these assays?
Calb FLC: 6; RanGTP-Impb inh: 5.9; Vif TR-FRET: 2%; Bfl-1 A1 inh: -0.4; LANA-H2B inh: -2.2; T cruzi inh: -5

Results for O=C(Cn1c(C(=O)NCCCN2CCOCC2)cc2sccc21)c1ccccc1 ?
Calb FLC: -9; RanGTP-Impb inh: 4.9; Vif TR-FRET: inconclusive; Bfl-1 A1 inh: -0.7; Beta apoptosis: -9; LANA-H2B inh: 1.9; T cruzi inh: -7

Results for CCc1ccccc1NC(=O)CCCN1C(=O)C2CC=CCC2C1=O (stereo not drawn) ?
Calb FLC: 1; RanGTP-Impb inh: -0.9; Vif TR-FRET: 8%; AF4-AF9 inh: 0.1; Bfl-1 A1 inh: -0.6; Beta apoptosis: -2; LANA-H2B inh: 4.3; T cruzi inh: 6

How did CN1CCN(CCCNC(=O)c2ccc3c(c2)N(Cc2ccccc2)CCS3)CC1 do in these assays?
Calb FLC: 8; RanGTP-Impb inh: 0.3; Vif TR-FRET: 0%; AF4-AF9 inh: 3.5; Bfl-1 A1 inh: -2.7; Beta apoptosis: -1; LANA-H2B inh: 3.1; T cruzi inh: -6

How did Cn1c(=O)n(C)c2cc(NS(=O)(=O)c3ccc(Cl)s3)ccc21 do in these assays?
Calb FLC: -5; RanGTP-Impb inh: -2.2; Vif TR-FRET: 1%; AF4-AF9 inh: -2.1; Bfl-1 A1 inh: 0.5; Beta apoptosis: 2; LANA-H2B inh: 2.5; T cruzi inh: -9

What do the screens show for `Cn1ccnc1C(OC(=O)c1ccccc1)C(F)(F)F` (stereo not drawn)?
Calb FLC: -2; RanGTP-Impb inh: 3.2; Vif TR-FRET: -1%; AF4-AF9 inh: -0.9; Bfl-1 A1 inh: -1.2; Beta apoptosis: -5; LANA-H2B inh: 7.7; T cruzi inh: 12

Results for CCOc1cc(C(=S)N2CCCC2)ccc1OCC(=O)Nc1c(C)cc(C)cc1C ?
Calb FLC: 2; RanGTP-Impb inh: 0.3; Bfl-1 A1 inh: 0.7; Beta apoptosis: 6; LANA-H2B inh: -6.7; T cruzi inh: 11

What do the screens show for `Fc1ccc(NC(=S)N2CCc3[nH]c4ccccc4c3C2)cc1`?
Calb FLC: 1; RanGTP-Impb inh: 9.8; Vif TR-FRET: -1%; AF4-AF9 inh: 0.3; Bfl-1 A1 inh: -0.5; Beta apoptosis: -13; LANA-H2B inh: -0.6; T cruzi inh: 13

How did CCc1ccc(NC(=O)C2CCCN(S(=O)(=O)c3ccc4[nH]c(=O)ccc4c3)C2)cc1 (stereo not drawn) do in these assays?
Calb FLC: -2; RanGTP-Impb inh: 5.6; AF4-AF9 inh: -0.3; Bfl-1 A1 inh: 0.3; LANA-H2B inh: 0.9; T cruzi inh: 8

Results for CCOC(=O)C1(Cc2cccc(Cl)c2)CCCN(C(=O)c2ccnn2C)C1 (stereo not drawn) ?
Calb FLC: 4; RanGTP-Impb inh: 2.2; Vif TR-FRET: -5%; AF4-AF9 inh: -1.3; Bfl-1 A1 inh: -0.1; Beta apoptosis: 2; LANA-H2B inh: -1.0; T cruzi inh: 14

How did Cc1cccc(NC(=O)NCCc2c[nH]c3ccccc23)c1 do in these assays?
Calb FLC: -8; RanGTP-Impb inh: 2.2; Vif TR-FRET: -12%; Bfl-1 A1 inh: 0.3; Beta apoptosis: 0; LANA-H2B inh: 2.7; T cruzi inh: -2

How did CC(=O)N1C(=O)C(=C2C=C(C)OC(C)=C2)c2ccccc21 do in these assays?
Calb FLC: -10; RanGTP-Impb inh: -3.4; Vif TR-FRET: -7%; Bfl-1 A1 inh: -0.3; LANA-H2B inh: -14; T cruzi inh: -9

How did CCN1CCC2(CC1)C(C#N)=C(N)Oc1c2sc2nc(C)cc(C)c12 do in these assays?
Calb FLC: -8; RanGTP-Impb inh: 28*; Vif TR-FRET: 20%; Bfl-1 A1 inh: 0.2; Beta apoptosis: 4; LANA-H2B inh: -42; T cruzi inh: 15

What do the screens show for `CCCc1[nH]nc2c1C(/C(C)=C/c1ccccc1)C(C#N)=C(N)O2` (stereo not drawn)?
Calb FLC: inconclusive; RanGTP-Impb inh: 7.2; Vif TR-FRET: 7%; Bfl-1 A1 inh: -0.9; Beta apoptosis: -7; LANA-H2B inh: 14; T cruzi inh: 8

What do the screens show for `CC(C)n1nccc1NS(=O)(=O)c1ccccc1`?
Vif TR-FRET: -3%; AF4-AF9 inh: -0.5; Bfl-1 A1 inh: -0.4; Beta apoptosis: -3; LANA-H2B inh: -4.5

Results for Cc1cc2c(cc1S(=O)(=O)Nc1c(C)cccc1C)n(C)c(=O)c(=O)n2C ?
Calb FLC: -7; RanGTP-Impb inh: -1.1; AF4-AF9 inh: -2.6; Bfl-1 A1 inh: -0.1; Beta apoptosis: 0; LANA-H2B inh: -2.3; T cruzi inh: 0

How did Cc1nc2nc(SCC(=O)O)nn2c(C)c1Cc1c(F)cccc1Cl do in these assays?
Calb FLC: 53; RanGTP-Impb inh: 4.4; Vif TR-FRET: 2%; AF4-AF9 inh: 1.0; Bfl-1 A1 inh: -0.4; Beta apoptosis: 2; LANA-H2B inh: -1.1; T cruzi inh: -3
